# Bioassay records: PubChem BioAssay, National Center for Advancing Translational Sciences (NCATS)
# TRPV1 PAM: enhances activation of the human vanilloid receptor TRPV1 | Q8NER1 | TRPV1-expressing cells, Fluo-8 calcium influx, capsaicin EC20 potentiation; host cell line not named in the record; control for the full effect not named in the record | potentiation, % at 8.33 µM | 0.02% of 320,000 active; active means potentiation above 80%; inconclusive means 30% to 80%; inactive means below 30%; further: 0% is about no effect
#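 Fluo-8 calcium influx in TRPV1-expressing cells, kinetic read (ex 480/em 520 nm). Compound added and read 3 min for agonist activity, followed by capsaicin at EC20 final and 2 min further read for enhancement.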
# TRPML1 inh: inhibitors of human TRPML1 channel; Q9GZU1; TRPML1-inducible cells, Ca2+ dye fluorescence, FDSS; stronger effect = lower value; inhibition of EC80 agonist-evoked calcium signal; activity change, negative = inhibition, % (no concentration beside the values); 0.02% of 390,000 active; in the data active means activity change below about -50%; inconclusive means about -30% to -50%; inactive means above about -30%;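 further: stimulus is agonist 54-4 at its EC80 concentration; on the % scale 0 is the no-effect control and ±100 the full control effect; compound concentration not given in the record; the text of the record puts the active cut at -80%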
# Target sequence (Q9GZU1 whole entry, looked up): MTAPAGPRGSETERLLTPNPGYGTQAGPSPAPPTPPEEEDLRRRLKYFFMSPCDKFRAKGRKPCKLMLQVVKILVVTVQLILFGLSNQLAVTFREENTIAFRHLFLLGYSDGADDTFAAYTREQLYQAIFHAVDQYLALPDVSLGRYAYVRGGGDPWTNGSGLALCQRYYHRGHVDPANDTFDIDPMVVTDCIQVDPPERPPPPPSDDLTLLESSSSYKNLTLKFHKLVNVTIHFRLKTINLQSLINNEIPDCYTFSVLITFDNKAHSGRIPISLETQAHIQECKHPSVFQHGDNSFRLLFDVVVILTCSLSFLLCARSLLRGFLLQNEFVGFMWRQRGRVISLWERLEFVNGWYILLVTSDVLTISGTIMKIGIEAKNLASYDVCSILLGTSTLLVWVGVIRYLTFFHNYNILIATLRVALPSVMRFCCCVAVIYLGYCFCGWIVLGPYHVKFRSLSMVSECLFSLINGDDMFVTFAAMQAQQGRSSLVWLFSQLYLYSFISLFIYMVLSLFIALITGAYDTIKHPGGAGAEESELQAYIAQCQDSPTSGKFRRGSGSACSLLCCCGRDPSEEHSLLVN
#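 Calcium fluorescence in TRPML1-DL cells induced overnight with Tet: a 110 s read after compound pin addition, then a 110 s antagonist read after challenge with 54-4 at 4 uM final (EC80).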
# D2 potentiator: potentiates the human D2 dopamine receptor allosterically | P14416 | DiscoveRx D2 beta-arrestin cells, luminescence, 90 min; 100% = 57 uM dopamine signal | potentiation, % (no concentration beside the values) | 0.23% of 360,000 active | AID 624464; active = potentiation of 50% or more; inconclusive = 30% to 50%; inactive = 30% or less;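 further: compound concentration not given in the record; tested on top of an EC20 dose of dopamine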
# Target sequence (P14416 whole entry, looked up): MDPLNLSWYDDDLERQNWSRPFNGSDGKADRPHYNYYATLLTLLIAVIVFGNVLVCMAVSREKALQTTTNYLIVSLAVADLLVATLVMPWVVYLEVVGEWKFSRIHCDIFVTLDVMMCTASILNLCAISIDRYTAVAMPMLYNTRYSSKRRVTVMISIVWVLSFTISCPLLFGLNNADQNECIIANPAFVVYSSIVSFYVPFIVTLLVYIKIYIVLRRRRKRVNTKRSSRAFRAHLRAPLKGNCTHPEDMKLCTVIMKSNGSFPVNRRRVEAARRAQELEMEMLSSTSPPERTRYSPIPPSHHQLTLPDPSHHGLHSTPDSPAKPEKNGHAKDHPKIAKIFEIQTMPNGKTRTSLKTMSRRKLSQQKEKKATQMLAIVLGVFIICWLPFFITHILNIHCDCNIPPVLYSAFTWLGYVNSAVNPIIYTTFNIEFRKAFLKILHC
#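 PathHunter D2 cells, attached overnight at 37 deg C, received compound in DMSO plus dopamine at EC20 (50 nM final) for 90 min at 37 deg C. Beta-arrestin recruitment was read as luminescence after 1 h with detection reagent at ambient temperature.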
# CtBP-E1A inh: inhibitors of CtBP/E1A interaction; 0.49% of 340,000 active; AID 651724; activity change, % (test concentration not listed); AlphaScreen GST-E1A/His-CtBP binding, 1536-well; stronger effect = lower value; control for the full effect not named in the record; in the data active means activity change below about -65%; inconclusive means about -30% to -65%; inactive means above about -30%; further: on the % scale 0 is the no-effect control and ±100 the full control effect; compound concentration not given in the record
#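 Protein mix (5X: 125 nM each GST-E1A, His-CtBP) was incubated with pinned compound 2 h at 37 deg C in dark, in 50 mM Tris pH 8.0 buffer with 300 mM NaCl. Glutathione donor and nickel acceptor beads followed; AlphaScreen signal read after 1 h.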
# Six1-Eya2 blk: Six1/Eya2 interaction inhibition; Q15475+O00167; AlphaScreen GST-Six1/His-Eya2 binding, biochemical; stronger effect = lower value; control for the full effect not named in the record; activity change, % (no concentration beside the values); 0.56% of 360,000 active; in the data active = activity change below about -65%; inconclusive = about -30% to -65%; inactive = above about -30%; further: on the % scale 0 is the no-effect control and ±100 the full control effect; compound concentration not given in the record
#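 Six1/Eya2 binding was read as AlphaScreen signal after compounds were pinned into GST-Six1 plus His-tagged Eya2 (5X stock 250/500 nM) in pH 8.0 Tris/NaCl/TCEP buffer, beads added, then incubated 1 h, 37 C, dark.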
# TRPML1 ag: human mucolipin-1 channel agonism. Q9GZU1. 0.12% of 410,000 active. TRPML1-expressing cells, Ca2+ dye fluorescence, FDSS; host cell line not named in the record; reference of the full effect not given here. activation, % (test concentration not listed); in the data active = activation above about 50%; inconclusive = about 30% to 50%; inactive = below about 30%; further: 0% is about no effect; the text of the record puts the active cut at 80%
#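 Kinetic FDSS Ca2+ read in Tet-induced TRPML1-DL cells (ABD Ca8 dye plus quencher, 45-90 min RT loading): baseline, then compound, then 110 s agonist window; EC80 agonist 54-4 at 4uM final added afterwards for a 110 s antagonist window.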
# * marks the source's active call; other numbers are inactive results; u = inconclusive; x = not tested or not shown; & = joins results of further samples. Rows were taken by chance; about 0.95% have a hit in one of these screens.
# Fields – CtBP-E1A inh	TRPV1 PAM	TRPML1 ag	D2 potentiator	TRPML1 inh	Six1-Eya2 blk
- Cn1nc(C(=O)N2CCN(c3ccc(F)cc3)CC2)c2c1-c1ccccc1S(=O)(=O)C2
  -7	15	2.9	-3	7	-3
- COc1ccc(F)cc1S(=O)(=O)n1nnc2ccccc21
  u	-6	-0.7	-2	-25	-68*
- CCOc1ccccc1NC(=O)c1ccccc1NC(=O)c1ccco1
  4	4	-0.2	2	-14	-1
- CCN1C(=O)/C(=C\C=C2/C=CC=CN2CC)SC1=S
  -2	-11	0.6	9	-10	u
- O=C(c1cc(=O)[nH]c2ccccc12)N1CCN(c2ccccc2)CC1
  x	-12	-0.3	-12	-6	-4
- CCn1c(SCC(=O)Nc2nc(-c3ccc(C)cc3)cs2)nnc1-c1ccccc1
  1	-5	0.6	-9	-4	-2
- CN(C)CCNC(=O)c1ccc2nc([C@@H]3O[C@H](CO)[C@H](O)[C@H](O)[C@H]3O)[nH]c2c1
  -10	x	-0.1	-9	-1	9
- COc1ccccc1NC(=O)COc1ccc(C(=O)NCC2CCCO2)cc1OC (stereo unspecified)
  x	x	-0.2	-2	11	-2
- COc1ccc(C(=O)NCCCc2nc3ccccc3n2Cc2cc(C)ccc2C)cc1OC
  -2	-11	0.5	-10	1	-8
- COc1ccccc1NC(=O)c1c(C)cc(=O)oc1C
  11	8	-0.4	-9	-3	4
- C/C=C/C(=O)N1CC2(CC(c3cccc(NC(=O)/C(C)=C/C)c3)=NO2)C[C@H]1C(N)=O (stereo partly specified)
  -9	16	-0.2	-9	-18	-6
- CC(NCC(=O)Nc1ccccc1C(=O)NC1CC1)c1cccc(Cl)c1 (stereo unspecified)
  4	0	-0.4	2	-11	-14
- CC(CC(=O)Nc1ccc(Cl)c([N+](=O)[O-])c1)c1ccccc1 (stereo unspecified)
  -4	-29	2.4	-20	3	-5
- CCSc1ncc(/C=N/Nc2ccc(Cl)cc2)n1C
  -11	-17	0.7	u	46	-7
- CNS(=O)(=O)c1cccc(C(=O)OCC(=O)N2c3ccccc3CC2C)c1 (stereo unspecified)
  -8	6	4.7	-9	8	-3
- CCN(CC)S(=O)(=O)c1ccc(C(=O)OCC(=O)Nc2sc3c(c2C#N)CCCCC3)cc1
  -6	-5	-0.7	6	2	-3
- COCCCNc1nc2c(-c3cccc(C)c3)nnn2c2ccc(Cl)cc12
  10	0	x	-8	x	9
- CC1(C)Cc2ccccc2-c2nnc(SCc3ccc(C#N)cc3)n21
  -1	3	1.0	-9	-10	0
- CCOCCCNC(=O)C1CCC(=O)N1CCc1ccccc1 (stereo unspecified)
  0	17	0.2	12	-3	11
- C[C@]12c3[nH]c4cc(-c5ccco5)ccc4c3CCN1C(=O)[C@@H](CC(=O)NCCC1=CCCCC1)C[C@@H]2C(=O)N1CCCCC1
  -17	x	-0.6	-6	-15	-19
- CCC(CC)C(=O)c1c[nH]c(C(=O)NCCc2ccccn2)c1
  -1	1	-0.9	-9	8	-2
- CN(C)CC(=O)c1c[nH]c2ccccc12
  10	3	-0.2&1.5	-3	-11	9
- N#Cc1cc([N+](=O)[O-])ccc1NCCN1CCOCC1
  -2	-8	1.5	-12	-7	13
- COC(=O)c1sccc1NC(=O)CC1NCCNC1=O (stereo unspecified)
  x	-1	-0.4	-10	26	-2
- COc1ccc(N(CC(=O)NCc2ccc3c(c2)OCO3)C(=O)CCC(=O)Nc2ccccn2)cc1
  7	-2	1.5	-12	-9	-1
- O=C(CSc1nc2ncccc2[nH]1)c1cccc([N+](=O)[O-])c1
  -12	-6	0.3	7	2	-5
- CC(Oc1coc(CN2CCN(C(=O)c3ccco3)CC2)cc1=O)c1ccccc1 (stereo unspecified)
  -1	9	0.9	-22	9	2
- COCCNC(=O)CSc1nc2ccccc2c(=O)n1-c1cccc(OC)c1
  3	11	-0.6	-5	1	0
- C=C(CC[C@@H](O)C(C)(C)O)[C@H]1CC[C@]2(C)[C@@H]1CCC1[C@@]3(C)CCC(=O)C(C)(C)C3CC[C@]12C (stereo partly specified)
  2	x	0.1	-6	76	0
- O=C(NCc1ccccc1Br)C1CCCO1 (stereo unspecified)
  5	1	0.0	1	1	0
- CN1CCN(CCCNC(=O)C2CCN(c3nnc(-n4cccc4)s3)CC2)CC1
  12	2	0.4	6	-1	-4
- CCC(=O)Nc1cccc(C(=O)N(Cc2ccccc2)Cc2ccccc2)c1
  -1	-34	1.3	-3	-10	3
- COc1ccc(CCN(C)C(=O)c2ccc(OCC(=O)N3CCOCC3)c(OC)c2)cc1OC
  7	-41	0.8	-7	-11	4
- CCOC(=O)c1cnc2c(cnn2C)c1NCc1ccc(OC)cc1
  3	3	-0.6	1	-1	-3
- O=C(N/N=C/C(Cl)=C\c1ccccc1)c1ccco1
  -77*	-13	-0.4	-6	9	-14
- N#CCCS(=O)(=O)c1ccc(N)cc1
  -23	-12	0.6	-2	15	-6
- COc1ccc(-c2nc(CS(=O)CC(=O)NCc3ccccn3)c(C)o2)cc1 (stereo unspecified)
  -12	24	-0.2	-1	-14	-1
- CCCCNc1c(-c2ccc(OC)c(SC(C)CC)c2)nc2ccc(Cl)cn12 (stereo unspecified)
  5	x	0.2	-6	11	-2
- CC(C)Oc1ccc(/C(O)=C2/C(=O)C(=O)N(CCN3CCNCC3)C2c2cccc([N+](=O)[O-])c2)cc1 (stereo unspecified)
  7	2	0.4	-3	7	-2
- CC1CN(C(=O)Cn2cc(S(=O)(=O)CC(=O)N3CCOCC3)c3ccccc32)CC(C)O1 (stereo unspecified)
  1	6	0.0	1	14	1
- Nc1nc(SCc2ccccc2)c2[nH]cnc2n1
  x	-7	1.4&-0.8	-9	-18	3
- COc1ccc(C/C(N)=N/O)cc1
  4	0	0.4	-8	24	8
- CC(C)(C)c1ccc(CC(=O)N2CCC2(C)C(=O)Nc2cccc3c2CCCC3)cc1 (stereo unspecified)
  0	x	-0.2	-7	x	-2
- CCN(Cc1ccncc1)C(=O)CCc1nnc(CCc2ccccc2OC)o1
  x	3	0.1	-9	6	2
- COCCCNC(=S)Nc1cc2oc3ccccc3c2cc1OC
  u	-2	-0.2	-14	-13	-12
- COc1ccc(CCNC(=O)c2ccc3c(c2)NC(=O)C(C(C)C)N3)cc1OC (stereo unspecified)
  4	-11	-0.5	-1	-15	-1
- Cc1noc(C)c1CSc1nnc(-c2cccnc2)n1C1CCCCC1C (stereo unspecified)
  0	-13	-0.1	-3	-5	1
- Cc1nc2ccc(NC(=O)[C@H](C)N3C(=O)C4CC=CCC4C3=O)cc2s1 (stereo partly specified)
  x	x	-0.6	-6	-11	-4
- C[C@H](CCCC/C=C/C(=O)O)O[C@@H]1O[C@@H](C)[C@H](O)C[C@H]1O
  -14	2	-0.3	-11	-3	-3
- O=C(NCCOCc1ccccc1)C(c1ccccc1)c1ccccc1
  -12	5	-0.6	-29	61	-12
- COc1ccc(N(C)S(=O)(=O)c2cccc(C(=O)Nc3ccc4c(c3)OCCO4)c2)cc1
  -14	-6	0.9	9	26	-14
- CCOC(=O)Nc1ccc(OC(=O)Oc2ccc(NC(=O)OCC)cc2)cc1
  2	x	2.9	-2	25	-1
- Cc1ccc(OC(=O)c2cncc(Br)c2)c(C)c1
  x	8	-0.4	-19	-15	5
- Cc1cc(C)nc(N/N=C/c2ccccc2OCc2ccccc2)n1
  3	-25	-0.5	-3	9	-4
- O=S1(=O)CCOCCCN1Cc1cccc(F)c1
  4	-14	0.2&-0.6	-12	-23	5
- CC(OC(=O)CN1C(=O)NC2(CCCC2)C1=O)C(=O)Nc1cccc(Cl)c1Cl (stereo unspecified)
  -5	-14	6.4	4	46	0
- Cc1c(C(=O)N2CCOCC2)c(S(=O)(=O)Nc2ccc(OC(F)(F)F)cc2)c(C)n1C
  0	8	-0.3	0	9	2
- CCn1cc(CNC(=O)CCc2ccc(OC)cc2)cn1
  5	-3	0.0	15	13	11
- COc1ccc(NC(=O)c2cc3nc(-c4ccccc4)cc(-c4ccccc4)n3n2)c(OC)c1
  4	3	-0.3	-22	-4	5
- COc1ccc(C2C(C(C)=O)=C(C)N=c3s/c(=C\c4cc(C)n(C)c4C)c(=O)n32)c(OC)c1 (stereo unspecified)
  -13	-11	29	-17	10	-18

# Later entries
# Fields – CtBP-E1A inh	TRPV1 PAM	TRPML1 ag	D2 potentiator	TRPML1 inh	Six1-Eya2 blk
- COc1ccc(C(=O)N2CCN(CCNC(=O)C(=O)Nc3ccc(F)cc3)CC2)cc1OC
  -2	-8	0.2	-4	-9	-6
- Oc1cccc(-c2ccc3nccn3c2)c1
  -20	x	-0.5	-17	x	-22
- COc1ccc(S(=O)(=O)N(C)C[C@H]2OCc3cnnn3CCCC(=O)N([C@H](C)CO)C[C@@H]2C)cc1
  -21	x	0.2	-7	-3	8
- CCCn1c(N)nc2ccccc21
  6	6	4.3	-13	11	-2
- O=C(Cn1c(NCCO)nc2ccccc21)c1cccs1
  1	-8	0.8	2	22	9
- O=C1CC(N2CCCCCC2)C(=O)N1c1ccc(F)cc1 (stereo unspecified)
  x	8	-0.1	-9	6	2
- O=C(COC(=O)c1ccc(F)cc1F)Nc1ccc(Cl)cn1
  3	-7	0.9	-2	11	10
- CC(C)n1c(=NC(=O)c2ccco2)c(C#N)cc2c(=O)n3ccccc3cc21
  -3	-11	2.2	5	-12	-1
- COc1ccccc1N(C)S(=O)(=O)c1ccc(C(=O)Nc2cccc(Br)c2)cc1
  0	x	2.5	-16	1	0
- O=C(O)c1cc(O)c2c(c1)[C@H]([C@H]1c3cc(C(=O)O)cc(O)c3C(=O)c3c(O[C@@H]4O[C@H](CO)[C@@H](O)[C@H](O)[C@H]4O)cccc31)c1cccc(OC3O[C@H](CO)[C@@H](O)[C@H](O)[C@H]3O)c1C2=O (stereo partly specified)
  u	-5	-0.2	-1	32	-74*
- O=S1(=O)CC(N2CCN(CC3CC3)CC2)CN1Cc1ccccc1 (stereo unspecified)
  8	x	-0.2	-14	x	-4
- O=C(O)c1ccc2c3c(cccc13)C(=O)N(c1cccc3ccccc13)C2=O
  -5	2	0.4	-6	-1	-27

# Laid out differently: entries from further up
CC(C)n1c(=NC(=O)c2ccco2)c(C#N)cc2c(=O)n3ccccc3cc21
  CtBP-E1A inh: -3
  TRPV1 PAM: -11
  TRPML1 ag: 2.2
  D2 potentiator: 5
  TRPML1 inh: -12
  Six1-Eya2 blk: -1
COc1ccccc1N(C)S(=O)(=O)c1ccc(C(=O)Nc2cccc(Br)c2)cc1
  CtBP-E1A inh: 0
  TRPV1 PAM: x
  TRPML1 ag: 2.5
  D2 potentiator: -16
  TRPML1 inh: 1
  Six1-Eya2 blk: 0
O=C(O)c1cc(O)c2c(c1)[C@H]([C@H]1c3cc(C(=O)O)cc(O)c3C(=O)c3c(O[C@@H]4O[C@H](CO)[C@@H](O)[C@H](O)[C@H]4O)cccc31)c1cccc(OC3O[C@H](CO)[C@@H](O)[C@H](O)[C@H]3O)c1C2=O (stereo partly specified)
  CtBP-E1A inh: u
  TRPV1 PAM: -5
  TRPML1 ag: -0.2
  D2 potentiator: -1
  TRPML1 inh: 32
  Six1-Eya2 blk: -74*
O=S1(=O)CC(N2CCN(CC3CC3)CC2)CN1Cc1ccccc1 (stereo unspecified)
  CtBP-E1A inh: 8
  TRPV1 PAM: x
  TRPML1 ag: -0.2
  D2 potentiator: -14
  TRPML1 inh: x
  Six1-Eya2 blk: -4
